# High-throughput results (PubChem)
# YjeE inh – qHTS Assay for Inhibitors of YjeE; tRNA threonylcarbamoyladenosine biosynthesis protein TsaE (Escherichia coli (strain …; purified YjeE, fluorescence polarisation of a bound ADP probe; Potency, µM; 0.05% of 71,000 active; active = well fitted falling curve; inconclusive = weaker or top-dose-only fall, or a rising curve; inactive = flat or poorly fitted curve;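 also: top concentration of the series not given in the record; excess ADP was the control for the full effect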
#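 Purified YjeE (10 uM) with BODIPY Texas Red-labeled ADP probe (2 uM); compounds pin-transferred, 15 min at room temperature. Binding inhibition read as decreased fluorescence polarization; ADP titration as control.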
# PK Bst – Pyruvate Kinase. partly purified Bacillus stearothermophilus pyruvate kinase, luminescence ATP production; ribose 5-phosphate activator present at AC10. Potency, µM. 1.2% of 51,000 active. AID 361, 2006; in the data active means potency below about 11 µM; inconclusive means mostly about 12 µM to 25 µM; inactive means weaker than that;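 the screen sought inhibitors and activators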;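 also: potency is read from the fitted curve at half-maximal effect; scaled between full activation by ribose 5 phosphate and full inhibition by luteolin; about four in five hits inhibit and the cells do not say which; series up to 57 µM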
# Starred values were filed as active, the others as inactive; i = inactive; ? = inconclusive; . = no result given. The list is partial (hit frequency here may not be typical).
SMILES,YjeE inh,PK Bst
O=C(CSc1nc2ccccc2c(=O)n1-c1ccccc1)NCc1ccco1,i,>57
O=C1NC(=O)[C@@](Cc2ccccc2)(c2cccnc2)N1,i,.
CCC(C)C1C(C#N)=C(N)Oc2n[nH]c(C)c21 (configuration not stated),i,.
Cc1occc(=O)c1OC(=O)Nc1ccccc1,.,>26
O=C(c1ccc(Cl)s1)N1CCN(c2ccccc2)CC1,i,.
Cc1cc(NC(=O)CSc2nnc(-c3ccoc3C)o2)no1,i,>57
O=C(c1ccccc1F)N1CCN(c2ccccc2F)CC1,i,>57
CCOC(=O)c1ccccc1NC(=O)c1ccc(NS(C)(=O)=O)cc1,i,.
CCn1c(=N)n(CCOc2ccc(OC)cc2)c2ccccc21,i,>57
CCOC(=O)c1c(C)c(C(=O)N(C)C2CCCCC2)c(C)n1C,i,>57
COc1ccc(-c2nc3ccccc3c(=O)n2CCCn2ccnc2)cc1,i,>57
Cc1ccc(C2C(C#N)=C(N)Oc3cc4c(cc32)OCO4)cc1 (configuration not stated),i,>57
Cn1ncc2c1ncn1c(-c3ccccc3Cl)nnc21,i,>57
CCOc1ncccc1C(=O)OCc1cc(=O)n2c(n1)sc1ccccc12,i,>57
Cc1cccc(C)c1N1C(=O)C2ON(c3ccccc3)C(c3ccncc3)C2C1=O (configuration not stated),.,>26
COc1ccc(S(=O)(=O)N2CCC(C(=O)N3CCOCC3)CC2)cc1OC,i,.
Cc1c(Br)cc(-c2nnco2)cc1Br,i,.
CCCc1ccc(Oc2cn[nH]c2-c2ccc(O)cc2O)cc1,i,.
Cc1c(NC(=O)Cn2cnc3c(=O)n(C)c(=O)n(C)c32)cccc1-c1nc2ccccc2o1,i,>57
Cc1onc(-c2ccccc2Cl)c1C(=O)Nc1ccc(CN2CCCC2)cc1,i,>57
CC(=O)NC1C(=O)N=C(SCC(=O)NCc2ccccc2)NC1=O (configuration not stated),i,>57
COc1cc(NC2=CC(=O)CC(C)(C)C2)cc(OC)c1OC,.,>26
O=C(COc1ncnc2ccccc12)NCCCN1CCCC1=O,i,>57
CCOC(=O)Cn1c(CN2CCN(c3cccc(Cl)c3)CC2)nc2c1c(=O)[nH]c(=O)n2C,i,.

# Looked up one by one from the list above, 7 records:
SMILES,YjeE inh,PK Bst
O=C(COc1ncnc2ccccc12)NCCCN1CCCC1=O,i,>57
CCCc1ccc(Oc2cn[nH]c2-c2ccc(O)cc2O)cc1,i,.
COc1cc(NC2=CC(=O)CC(C)(C)C2)cc(OC)c1OC,.,>26
COc1ccc(S(=O)(=O)N2CCC(C(=O)N3CCOCC3)CC2)cc1OC,i,.
Cc1c(Br)cc(-c2nnco2)cc1Br,i,.
CC(=O)NC1C(=O)N=C(SCC(=O)NCc2ccccc2)NC1=O (configuration not stated),i,>57
Cn1ncc2c1ncn1c(-c3ccccc3Cl)nnc21,i,>57

# Next entries
SMILES,YjeE inh,PK Bst
N#Cc1ccc(CN2CCC3(CC2)CCN(S(=O)(=O)c2ccccc2)CC3)cc1,i,.
COc1cc2[nH]c(=O)n3nc(-c4ccccc4)nc3c2cc1OC,i,>57
C[C@@H]1CC2(OC[C@]3(C)O[C@H]23)O[C@H]2C[C@@]3(C)[C@@H]4CC[C@H]5C(C)(C)C(O[C@@H]6OC[C@@H](O)[C@H](O)[C@H]6O)CC[C@@]56C[C@@]46CC[C@]3(C)[C@@H]12 (some centres not stated),i,.
O=C(Nc1ccc2c(c1)OCCO2)c1ccc(CN2CCOCC2)cc1,i,.
CCOC(=O)c1c(C)oc2ccc(O)c(CN3CCCCC3)c12,i,>57
CC(C)C[C@@H](CC(=O)N[C@@H](CCC(=O)O)CC(=O)O)NC(=O)[C@@H]1CCCC[C@H]1NC(=O)C[C@H](CCCN)NC(=O)C[C@H](CO)NC(=O)[C@@H]1CNCC[C@H]1N,i,.
C[C@@H](CN1CCC(Cc2ccccc2)CC1)[C@H](O)c1ccc(O)cc1,i,.
CCCCCC1CC(=O)N(Cc2ccccc2)C(=O)N1 (configuration not stated),i,>57
CCCCNC(=O)C(c1ccc(OCC(=O)OC)c(C(=O)OC)c1)N(CCc1ccccc1)C(=O)CCCCCN1C(=O)NC(c2ccc(-c3ccccc3)cc2)C(C(=O)OCc2ccccc2)=C1C (configuration not stated),i,.
O=C(Nc1ccc(Cl)cc1)C(c1ccccc1)N(CCO)CCO (configuration not stated),i,>57
Cc1ccc(C(=O)COC(=O)c2cnccn2)cc1,i,.
CCOC(=O)c1cnc(SCC(=O)Nc2cc(C(F)(F)F)ccc2N2CCOCC2)nc1N,i,>57
CCC(C)C(NC(=O)OC(C)(C)C)C(=O)NC(C(=O)N1CCCC1C(N)=O)C(C)CC (configuration not stated),i,>57
Cc1cc(NC(=O)C2(c3ccccc3)CCCC2)no1,i,>57
COC(=O)c1ccc(Cl)c(NC(=O)CN2CCN(Cc3ccccc3)CC2)c1,i,>57
N#CC1=C(N)Oc2n[nH]c(CSc3ccccc3)c2C12C(=O)Nc1ccccc12 (configuration not stated),i,>57
COc1ccccc1CNC(=O)CCN1C(=O)COc2ccccc21,i,i
CN1CCN(C(=O)c2ccc3c(=O)n(Cc4ccc(Cl)cc4)c(=S)[nH]c3c2)CC1,i,i
CCCCOC(=O)C1=C(C)Nc2ncnn2C1c1ccc(OCC)c(OC)c1 (configuration not stated),i,>57
Cc1ccc(CNC(=O)[C@H](C)[C@H]2C[C@]2(C)[C@H](NC(=O)OCc2ccccc2)c2ccccc2)c(F)c1F,i,.
COc1cc2c(cc1OC)C(c1ccc(N(C)C)cc1)CC(=O)N2 (configuration not stated),i,>57
Cc1cc(-c2ccco2)n(-c2ccccc2)n1,i,>57
Cc1nc(CCNC(=O)Cc2ccccc2)cs1,i,>57
CCOC(=O)CSc1nnc(Cc2ccccc2)n1CC1CCCO1 (configuration not stated),?,>57
O=C(CN1CCN(CC(=O)c2ccc(F)cc2)CC1)Nc1ccccc1Cl,i,>57
Cn1c(=O)c2c(SCC(=O)N3CCC(Cc4ccccc4)CC3)nc(C3CC3)nc2n(C)c1=O,i,.
Fc1c(F)c(F)c(CSc2nc3ccccc3[nH]2)c(F)c1F,i,.
CCn1nc(C)c(Oc2ccccc2O)c1C,i,>57
CS(=O)(=O)N1CCN(C(=O)NC23CC4CC(CC(C4)C2)C3)CC1,i,>57
CCCN(Cc1cc2cccc(C)c2[nH]c1=O)C(=O)c1cccc(OC)c1,i,>57
CC(C)NC(=O)N1CC2(CCN(S(=O)(=O)c3ccccc3)CC2)C1,i,.
CCOc1ccc(OCC)c(NC(=O)C2CCCN(S(=O)(=O)c3c(C)noc3C)C2)c1 (configuration not stated),i,>57
O=C(C1CCC1)N1CCc2cc(S(=O)(=O)N3CCN(c4ccccn4)CC3)ccc21,i,>57
N#Cc1c2c(c(NCCN3CCOCC3)n3c1nc1ccccc13)CCCC2,i,>57
CCOc1ccc(N=Cc2c(O)cc(C)oc2=O)cc1,i,.
COc1cc(C(=O)NCC(=O)n2nc(C)cc2C)cc(OC)c1OC,.,>11
CCC(C)C1C(C#N)=C(N)Oc2n[nH]c(-c3ccccc3)c21 (configuration not stated),i,.
NCCC[C@@H](CC(=O)N[C@@H]1CCCC[C@H]1C(=O)N[C@H](CC(=O)N[C@@H](CCC(=O)O)CC(=O)O)Cc1ccccc1)NC(=O)C[C@H](CO)NC(=O)[C@@H]1CCCC[C@H]1N,i,.
COc1ccc2[nH]c(=O)c(CN(Cc3ccco3)C(=O)c3ccccc3)cc2c1,i,>57
O=C(NCCOC(=O)c1ccc(S(=O)(=O)N2CCOCC2)cc1)c1cccnc1,i,>57
CCOC(=O)Cc1csc(NC(=O)CCS(=O)(=O)Cc2ccccc2)n1,i,>57
N=c1c(S(=O)(=O)c2ccccc2)cc2c(=O)n3ccccc3nc2n1Cc1ccco1,i,>57
CC(C)c1nnc(SCC(=O)NCc2ccco2)n1C,i,>57
CN(C)Cc1ccccc1-c1ccc2ncnc(N(C)C)c2c1,i,.
COc1ccccc1N1CCN(c2cc(=O)n(Cc3ccc(F)cc3)c(=O)[nH]2)CC1,i,.
CC(=O)NC12CC3CC(C1)CC(C(=O)OCC(=O)c1ccc4c(c1)OCCO4)(C3)C2,i,4.3*
CN1C(=O)CS(=O)c2ccc(C(=O)NC3CC3)cc21 (configuration not stated),i,.
O=C(O)c1ccc(Cl)c(Cl)c1,i,.
COc1ccc(-n2c(=O)c(-c3ccccc3)nc3cncnc32)cc1,i,.
Cc1ccc(-n2ncc3c(=O)n(Cc4cccnc4)cnc32)cc1,i,>57
COc1ccc(N2C(=O)C3CCCN3C2c2cccc(OC)c2OC)cc1 (configuration not stated),i,.
COc1ccc(C2NC(=O)NC(O)(C(F)(F)F)C2C(=O)c2ccc(C)cc2)cc1 (configuration not stated),i,.
O=C(COC(=O)CCC(=O)c1ccc(F)cc1)Nc1ccc(N2CCOCC2)cc1,i,>57
CCC(CC)c1nnc(NC(=O)c2c(-c3ccccc3)noc2C)s1,i,.
COc1cccc(-n2c(COc3ccc(C)cc3)nnc2SCC(N)=O)c1,i,>57
CCCCn1c(=N)n(CC(=O)C(C)(C)C)c2ccccc21,i,>57
CCOc1ccccc1NC(=O)C1CCN(S(=O)(=O)c2c(C)nn(C)c2C)CC1,i,.
CCC(=O)c1cn(CC(=O)NCC2CCCO2)c2ccccc12 (configuration not stated),i,>57
N#Cc1ccc(CSc2nnc(-c3ccccn3)n2-c2ccc(Cl)cc2)cc1,i,>57
CCCCOc1ccc(-c2nnn(CCC(=O)N3CCOCC3)n2)cc1,i,.

# The closing 2 compounds of the section above lead into the next.
SMILES,YjeE inh,PK Bst
N#Cc1ccc(CSc2nnc(-c3ccccn3)n2-c2ccc(Cl)cc2)cc1,i,>57
CCCCOc1ccc(-c2nnn(CCC(=O)N3CCOCC3)n2)cc1,i,.
CCC[C@@H]1C[C@@]1(CCC)C(NP(=O)(c1ccccc1)c1ccccc1)c1ccc(Cl)cc1 (some centres not stated),i,.
COC(=O)c1ccc(C(=O)OC)nc1,i,>57
COc1ccc(N(CC(=O)Nc2cccc(N(C)S(C)(=O)=O)c2)S(C)(=O)=O)cc1OC,i,>57
COc1cccc(Nc2ncccc2C(=O)NCc2ccccc2)c1,i,>57
Cn1nc(SCC(=O)O)sc1=S,i,>57
COC(=O)c1ccccc1NC(=O)COc1ccc(S(=O)(=O)N2CCCC2)cc1C,i,>57
O=C(Cn1cnc2ccccc21)OCC(=O)N1CCCc2ccccc21,i,.
COC(=O)C1=C(CN2CCSCC2)NC(=O)NC1c1cc(C)ccc1C (configuration not stated),i,>57
NC(=O)COc1ccc(=O)n(-c2ccccc2)n1,i,.
COC(=O)C1C(=O)C2=C(CC1C)NC(C)=C(C(=O)OCCOc1ccccc1)C2c1ccc(C)o1 (configuration not stated),i,>57
O=C(c1cccc(F)c1)N1CCC2(CC1)CCN(c1ccncc1)CC2,i,.
O=S(=O)(NCc1ccccc1Cl)c1cnc[nH]1,i,i

# At a glance, part of the list above:
SMILES,YjeE inh,PK Bst
COC(=O)C1=C(CN2CCSCC2)NC(=O)NC1c1cc(C)ccc1C (configuration not stated),i,>57
NC(=O)COc1ccc(=O)n(-c2ccccc2)n1,i,.
COC(=O)C1C(=O)C2=C(CC1C)NC(C)=C(C(=O)OCCOc1ccccc1)C2c1ccc(C)o1 (configuration not stated),i,>57
O=C(c1cccc(F)c1)N1CCC2(CC1)CCN(c1ccncc1)CC2,i,.
O=S(=O)(NCc1ccccc1Cl)c1cnc[nH]1,i,i

# Going on with the list:
SMILES,YjeE inh,PK Bst
Cc1cc2ccccc2n1CCNC(=O)C1CC1,i,.
O=C(O)C(Cc1ccccc1)n1cccc1 (configuration not stated),i,>57
Cc1cc(C(F)(F)F)c2c(=O)[nH]c(=O)n(Cc3ccccc3)c2n1,i,>57
CCOC(=O)Nc1nnc(-c2ccc(OC)c(OC)c2)s1,i,>57
Cc1onc(-c2ccccc2)c1C(=O)Nc1nnc(COc2ccc(Cl)cc2)s1,i,>57
O=C(c1cc(-c2cccs2)on1)N1CCOCC1,i,.
COc1ccc(S(=O)(=O)Cc2ccc(C(=O)NCc3cccs3)o2)cc1,i,.
O=C(C(NS(=O)(=O)c1cccs1)c1ccccc1)N1CCN(c2ccccc2)CC1 (configuration not stated),i,>57
Nc1ccc(S(=O)(=O)NCCS(=O)(=O)O)cc1,i,.
O=C(NCC(=O)N(c1cccnc1)C(C(=O)NCc1ccco1)c1ccccc1)c1ccco1 (configuration not stated),i,>57
O=C(Nc1ccccc1N1CCCC1)c1cc2ccccc2o1,i,i
COC(=O)[C@@]1(Cc2ccc(OC)cc2)[C@H]2c3cc(C(=O)N4CCCC4)n(CCO)c3C[C@H]2CN1C(=O)c1ccccc1,i,.
CCNS(=O)(=O)c1ccc(NC(=O)Nc2cccc(C(F)(F)F)c2)cc1,i,>57
CCn1cc(C(=O)NC2CC3CCC2C3)c(=O)c2ccc(C)nc21 (configuration not stated),i,>57
Cc1cc2c(=O)n(CC(=O)N3CCN(c4ccccc4)CC3)cnc2s1,i,>57
O=C(O)CCCCCNc1nc(=S)[nH]c2ccccc12,i,>57
CCOC(=O)N1CCC(N2CC34C=CC(O3)C(C(=O)Nc3ccc(C)cc3)C4C2=O)CC1 (configuration not stated),i,.
Cc1ccccc1-n1nc(C)c2cc(C(=O)N3CCN(S(=O)(=O)c4ccc(F)cc4)CC3)sc21,i,>57
CC(NC(=O)c1cc2ccccc2o1)c1cccs1 (configuration not stated),i,i
COCC(=O)N1CCC[C@@]2(CCN(c3ccccn3)C2)C1,i,.
COc1ccc(-n2c(N)c(C(=O)NCC3CCCO3)c3nc4ccccc4nc32)c(OC)c1 (configuration not stated),i,>57
